Screening data (PubChem BioAssay)
E coli growth: inhibitors of Escherichia coli growth; OD600, 23 h; active compounds read low; OD600 absorbance (no concentration beside the values); 0.21% of 330,000 active; AID 1053175;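 active = OD600 absorbance below the run mean of sample wells minus 3.6 SD, in any replicate, cut at about 0.56 in these data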;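 note: stock transfer was 300 nL into about 60 µL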
UCH37 DUB inh: blocks the human deubiquitinase UCH37. inhibition, % (concentration not given with the values). purified proteasome/UCH37, Ub-AMC cleavage fluorescence. 0.33% of 330,000 active. Q9Y5K5;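 active = mean of two replicates above 20%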;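 note: 0% = compound-free wells with enzyme and 100% = wells lacking proteasome; stock transfer was 100 nL into about 20 µL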
Target sequence (Q9Y5K5 whole entry, looked up): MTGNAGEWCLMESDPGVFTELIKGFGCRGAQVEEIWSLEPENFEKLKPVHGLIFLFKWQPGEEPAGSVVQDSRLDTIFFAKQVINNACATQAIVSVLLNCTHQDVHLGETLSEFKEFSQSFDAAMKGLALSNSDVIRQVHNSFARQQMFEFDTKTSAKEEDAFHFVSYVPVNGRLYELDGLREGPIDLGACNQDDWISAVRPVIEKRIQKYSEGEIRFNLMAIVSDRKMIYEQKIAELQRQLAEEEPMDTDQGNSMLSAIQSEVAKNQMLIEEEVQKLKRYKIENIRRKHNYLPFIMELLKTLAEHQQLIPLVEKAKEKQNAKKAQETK
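Test system – human UCH37 enzyme supplied as purified proteasome complex · Incubation – 30 min preincubation with enzyme, 25 min cleavage at room temperature · Detection – AMC fluorescence from Ub-AMC cleavage, excitation 355 nm, emission 460 nm · Benchmarks – no-proteasome wells (full inhibition) and compound-free wells (no inhibition)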
* = called active by the depositor. A portion of the library; the hit share may differ from the screen's.

| Structure | E coli growth | UCH37 DUB inh |
| --- | --- | --- |
| COc1ccc(O)c(C=NN2CCOCC2)c1 | 0.66 | 3.3 |
| C/C(C=NNC(=O)c1ccc(C)nc1)=C\c1ccccc1 | 0.7 | 9.6 |
| CCNC(=S)NN=Cc1ccc(F)cc1 | 0.65 | 4.9 |
| CC(=NNC(=O)c1ccco1)c1cccc2ccccc12 | 0.66 | 5.1 |
| CC(C)CN(C=Nc1sc2c(c1C#N)CCCCC2)CC(C)C | 0.67 | 3.7 |
| Fc1ccc(NC(=S)NN=Cc2cccc(Br)c2)c(F)c1 | 0.72 | 3.0 |
| C(=Nc1c(-c2ccccc2)nc2n1CCS2)c1ccccc1 | 0.75 | 3.0 |
| Cc1ccc(-c2nnc(SCC(=O)NN=Cc3ccc(C(=O)O)cc3)n2C2CCCCC2)cc1 | 0.7 | 5.7 |
| COc1ccc(C=NNC(=O)Cn2c(Cc3ccc(OC)c(OC)c3)nc3ccccc32)cc1OC | 0.65 | 2.5 |
| Cc1ccc(C=NNC(=O)Cn2cncn2)cc1 | 0.65 | 2.3 |
| CCOc1ccc(-c2c(C(=O)NN=Cc3ccc(O)cc3)nnn2-c2nonc2N)cc1 | 0.72 | 1.3 |
| Cc1ccc(C(=O)NN=Cc2ccc(-c3cccc(Cl)c3)o2)cn1 | 0.64 | -6.5 |
| CCCCC(C)=NNC(=O)NC1CCCCC1 | 0.72 | 0.7 |
| CCNC(=S)N=C(N)Nc1nc(C)c2cc(C)ccc2n1 | 0.68 | 6.4 |
| CCCCCOc1ccc(C=c2sc3nc(=O)c(-c4ccccc4)nn3c2=O)cc1OC | 0.69 | 4.4 |
| COc1cccc(-c2c(C(=O)NN=Cc3ccoc3)nnn2-c2nonc2N)c1 | 0.66 | 3.7 |
| COCCNC(=O)CC(=O)NN=Cc1cccc(C(=O)OC)c1 | 0.71 | 0.7 |
| CCOc1ccccc1C=Nn1c(C)nc2ccccc2c1=O | 0.67 | 1.4 |
| O=C(NN=Cc1cccc(Oc2ccccc2)c1)c1cccc(O)c1 | 0.71 | 3.9 |
| Brc1cc2c(cc1C=NNc1nc(N3CCOCC3)nc(N3CCOCC3)n1)OCO2 | 0.69 | 5.7 |
| Cc1ccc(CSc2nnc(SCC(=O)NN=C/C=C/c3ccccc3[N+](=O)[O-])s2)cc1 | 0.75 | 7.2 |
| O=C(Nc1ccccc1)ON=C1CCCCC1c1ccc([N+](=O)[O-])cc1[N+](=O)[O-] (centres undefined) | 0.81 | 1.8 |
| COCCNC(=O)c1c(N)n(N=Cc2ccc(F)cc2)c2nc3ccccc3nc12 | 0.66 | -340 |
| O=C(CN1CCOCC1)NN=Cc1c(O)ccc2ccccc12 | 0.63 | 4.2 |
| Cc1nn(-c2ccccc2)cc1C=NNC(=O)c1cccs1 | 0.66 | -21 |

(cont.)
| Structure | E coli growth | UCH37 DUB inh |
| --- | --- | --- |
| CON=CNC(=O)C1=NOC(CNc2ncc(C(F)(F)F)cc2Cl)C1 (centres undefined) | 0.68 | -1.1 |
| CC1=NNC(=O)C1CC(=O)NN=C/C=C/c1ccccc1 (centres undefined) | 0.68 | 5.9 |
| O=C(NN=Cc1coc2ccccc2c1=O)c1ccc(Cl)cc1 | 0.69 | -6.2 |
| O=C(NN=CC1CC2CCC1C2)C1CC1 (centres undefined) | 0.71 | 5.2 |
| CC(=NNC(=S)Nc1ccc(F)cc1)c1ccc2c(c1)OCCO2 | 0.68 | 2.9 |
| CCC(=NNc1ccc([N+](=O)[O-])cc1[N+](=O)[O-])c1ccc(O)cc1 | 0.72 | 5.6 |
| CC(C)(C)NC(=O)C(=O)NN=Cc1cccs1 | 0.64 | 6.6 |
| O=C1C2C3C=CC(C4CC34)C2C(=O)N1N=Cc1ccc(-c2ccccc2[N+](=O)[O-])o1 (centres undefined) | 0.78 | 5.8 |
| O=C(NN=Cc1cccnc1)c1cccc(F)c1 | 0.65 | 0.3 |
| CC(=NNc1ccc([N+](=O)[O-])cc1)c1ccc(C)cc1C | 0.7 | 0.0 |
| O=C(NN=Cc1cccc(F)c1)c1ccc(Cl)cc1 | 0.64 | 3.7 |
| Cc1ccccc1NCC(=O)NN=C/C=C/c1cccc([N+](=O)[O-])c1 | 0.69 | 2.7 |
| COc1ccccc1NS(=O)(=O)c1cccc(C(=O)NN=Cc2ccc(OCC(=O)O)cc2)c1 | 0.69 | 3.3 |
| Cc1cc(C=c2sc3nc4ccccc4n3c2=O)c(C)n1-c1ccccn1 | 0.73 | -3.9 |
| COc1cc(C=NNC(=O)CCn2cnc(-c3ccccc3)c2-c2ccccc2)ccc1O | 0.67 | 3.8 |
| Cc1ccc(C=N/N=C2/NC(=O)C(CC(=O)N3CCOCC3)S2)cc1 (centres undefined) | 0.71 | 10 |
| COc1ccc(Br)cc1C=NNC(=O)CNC(=O)/C=C/c1ccccc1 | 0.76 | 4.5 |
| CC(/C=C/c1ccc2c(c1)OCO2)=NNC(=O)COc1ccc(C)cc1 | 0.72 | -1.9 |
| ON=Cc1cc(Br)cs1 | 0.65 | 6.1 |
| CN(C)c1cc(NN=Cc2ccccc2)nc(N(C)C)n1 | 0.62 | 3.4 |
| Cc1cc(C)nc(NN=Cc2sccc2C)n1 | 0.65 | 7.4 |
| CC1=N/C(=C\c2cc(Br)cc(Br)c2O)C(=O)O1 | 0.7 | 3.3 |
| CC(=NNc1ccc(F)cc1F)c1cccs1 | 0.62 | 1.0 |
| Cc1ccc(C=NNc2cc(C)nc(N3CCOCC3)n2)cc1 | 0.69 | 5.4 |
| Cc1ccccc1OCC(=O)NN=Cc1ccc([N+](=O)[O-])o1 | 0.66 | 4.2 |

The last 6 records of the section before lead into the next:
| Structure | E coli growth | UCH37 DUB inh |
| --- | --- | --- |
| CN(C)c1cc(NN=Cc2ccccc2)nc(N(C)C)n1 | 0.62 | 3.4 |
| Cc1cc(C)nc(NN=Cc2sccc2C)n1 | 0.65 | 7.4 |
| CC1=N/C(=C\c2cc(Br)cc(Br)c2O)C(=O)O1 | 0.7 | 3.3 |
| CC(=NNc1ccc(F)cc1F)c1cccs1 | 0.62 | 1.0 |
| Cc1ccc(C=NNc2cc(C)nc(N3CCOCC3)n2)cc1 | 0.69 | 5.4 |
| Cc1ccccc1OCC(=O)NN=Cc1ccc([N+](=O)[O-])o1 | 0.66 | 4.2 |
| Cc1ccc(-c2cc(C(=O)NN=Cc3ccco3)n[nH]2)s1 | 0.68 | 4.6 |
| CC(=NNc1cccc(Cl)c1)C1(C)N(O)C(C)(C)C(c2ccco2)=[N+]1[O-] (centres undefined) | 0.63 | 2.4 |
| CCOC(=S)NC(=NS(C)(=O)=O)c1ccccc1 | 0.66 | 1.8 |
| CC(=NNC(=O)c1ccc(-c2ccccc2)cc1)C1C(=O)c2ccccc2C1=O | 0.73 | 4.8 |
| CC(=O)C(=NNc1ccccc1)Oc1ccc(Br)cc1 | 0.65 | 3.9 |
| S=c1[nH]nc(-c2ccc(Cl)cc2)n1N=Cc1cccs1 | 0.68 | 7.4 |
| COc1ccc(C(=O)Oc2ccc(C=NNC(=O)Cc3ccc([N+](=O)[O-])cc3)cc2)cc1 | 0.67 | -0.9 |
| O=C(Cc1ccccc1)NN=Cc1ccc([N+](=O)[O-])s1 | 0.63 | 0.9 |
| CC(=O)Nc1cccc(C(C)=NNc2nc3ccccc3s2)c1 | 0.7 | 6.9 |
| Cc1c(NC(=S)NN=Cc2ccc([N+](=O)[O-])cc2O)c(=O)n(-c2ccccc2)n1C | 0.66 | 13 |
| CC(=NN1CCN(c2ccccc2)CC1)c1ccccc1O | 0.7 | 4.6 |
| CCOc1cc(C=Nn2cnnc2)cc(Br)c1O | 0.75 | -1.7 |
| CNC(=O)C(=O)NN=Cc1ccccn1 | 0.7 | 0.2 |
| O=C(C=NO)NCCCn1ccnc1 | 0.76 | 0.5 |
| CC(=NNC(=S)NCCc1ccccc1)c1ccc(Cl)cc1Cl | 0.66 | 1.9 |
| CCc1ccc2c(Cl)c(C(=O)NN=Cc3c[nH]c4ccccc34)sc2c1 | 0.74 | -7.1 |
| Clc1nc2sccn2c1C=Nn1cnc2ccccc21 | 0.7 | -6.4 |
| COc1ccc(C=NNC(=O)C(C)n2cnc3ccccc3c2=O)cc1 (centres undefined) | 0.65 | 2.0 |
| O=C(NN=C/C=C/c1ccco1)c1cncc(Br)c1 | 0.65 | 15 |
| NC(=O)Cn1cc(C=NNS(=O)(=O)c2ccc(Cl)cc2)c2ccccc21 | 0.67 | 1.3 |
| COc1cccc(C=NNc2ncnc3scc(-c4ccccc4)c23)c1OC | 0.69 | 7.5 |
| Cc1ccc(S(=O)(=O)NN=Cc2ccccc2F)cc1[N+](=O)[O-] | 0.66 | 3.7 |
| Cc1ccc(S(=O)(=O)N=C2C=C(Sc3ncn[nH]3)C(=O)c3ccccc32)cc1 | 0.67 | 64* |
| COc1ccc(C=Nn2c(-c3cc(C)[nH]n3)n[nH]c2=S)cc1 | 0.64 | 3.6 |
| CC(Cn1cnc([N+](=O)[O-])n1)=NNC(=O)COc1c(Cl)cc(Cl)cc1Cl | 0.71 | 3.5 |

Reprinted at random: 2 entries already listed, in no set order.
| Structure | E coli growth | UCH37 DUB inh |
| --- | --- | --- |
| S=c1[nH]nc(-c2ccc(Cl)cc2)n1N=Cc1cccs1 | 0.68 | 7.4 |
| CC(=O)C(=NNc1ccccc1)Oc1ccc(Br)cc1 | 0.65 | 3.9 |

Other entries.
| Structure | E coli growth | UCH37 DUB inh |
| --- | --- | --- |
| NC(=NOC(=O)CCC1CCCC1)c1cccc([N+](=O)[O-])c1 | 0.69 | 0.6 |
| O=C(NN=Cc1ccc2c(c1)OCO2)c1ccc(COCC(F)(F)C(F)F)cc1 | 0.76 | -394 |
| CCOC(=O)C(=NNc1ccccc1)Sc1nnnn1-c1ccc(C)cc1 | 0.69 | -0.1 |
| COc1ccc(C=NNc2nnc(C)n2N)cc1OC | 0.7 | 6.9 |
| CC(C)NC(=O)C(=O)NN=Cc1ccco1 | 0.69 | 2.5 |
| COc1ccc(C=NNc2nc(-c3cccc(S(=O)(=O)N4CCCC4)c3)cs2)c(OC)c1 | 0.7 | -83 |
| CC(CC(=O)Nc1ccc2c(c1)OCCO2)=NNC(=O)Cc1ccccc1 | 0.7 | 5.2 |
| ON=C1CCCc2nnc3c(c21)CCCC3 | 0.72 | 6.2 |
| Cc1nc2ccccn2c1C(=O)NN=Cc1ccc2c(c1)OCO2 | 0.66 | 3.4 |
| COc1cccc(C=NNC(=O)CCc2c(C)n[nH]c2C)c1 | 0.69 | 29* |
| Cc1ccc(C=Nn2c(-c3ccco3)n[nH]c2=S)s1 | 0.68 | 8.9 |
| CC(CCc1oc2c(Br)cc(Br)cc2c1-c1ccc(C)o1)=NO | 0.71 | 0.8 |
| COc1cc(Br)cc(C=NN(CCO)C2=NS(=O)(=O)c3ccccc32)c1OC | 0.7 | -0.8 |
| CN(C)C=Nc1ncc(C(=O)c2ccc3ccccc3c2)s1 | 0.67 | -7.4 |
| O=C(NN=Cc1ccc2c(c1)OCO2)C(=O)Nc1ccccc1Cl | 0.68 | -17 |
| CCN(N=Cc1cccs1)c1cc(=O)n(C)c(=O)[nH]1 | 0.77 | 18 |
| COc1cc(O)c(C=NNC(=O)c2ccncc2)c(OC)c1[N+](=O)[O-] | 0.7 | 14 |
| Cc1cc(C)nc(SCc2ccc(C(=O)NN=Cc3ccccn3)cc2)n1 | 0.71 | 0.1 |
| CCN(CC)c1ccc(C=NNC(=O)c2c(-c3ccccc3)noc2C)cc1 | 0.64 | -56 |
| CC(=NNC(=O)Cc1ccc(O)cc1)c1cccnc1 | 0.7 | 1.4 |
| Cc1nnc(NN=Cc2ccc(-c3ccccc3[N+](=O)[O-])o2)n1N | 0.62 | 13 |
| COc1ccccc1C=NNc1cc(C)nc2ccc(C)cc12 | 0.71 | -46 |
| O=C(NN=Cc1cc(Cl)c(O)c(Cl)c1)c1cc2c(ccc3ccccc32)o1 | 0.61 | -20 |
| Fc1ccc(Nc2nc(NN=Cc3ccco3)nc(N3CCCCC3)n2)cc1 | 0.69 | 6.8 |
| CCCOc1cccc(C(=O)NN=Cc2coc3ccccc3c2=O)c1 | 0.68 | -34 |

Later entries.
| Structure | E coli growth | UCH37 DUB inh |
| --- | --- | --- |
| CCOC(=O)C(=NNc1cc(Cl)ccc1Cl)N1CC(C)OC(C)C1 (centres undefined) | 0.7 | 1.9 |
| Cc1ccc(-n2cccc2C=Nn2cnnc2)cc1Cl | 0.7 | 7.5 |
| Cc1ccccc1NC(=S)NN=C1CC(C)(C)Oc2ccc(O)cc21 | 0.7 | -34 |
| O=C(NN=Cc1cc(Cl)cc(Cl)c1O)c1ccncc1 | 0.6 | 4.1 |
| COc1ccc(-c2cnnc(NN=Cc3ccc(O)c(O)c3)n2)cc1 | 0.63 | 5.3 |
| CCN(CC)S(=O)(=O)c1cccc(C(=O)NN=Cc2ccccn2)c1 | 0.73 | 0.8 |
| COc1cccc(C=NNC(=O)Cn2nc([N+](=O)[O-])cc2C)c1 | 0.68 | 1.4 |
| C=C(C)CN=c1scc(C)n1N=Cc1ccco1 | 0.68 | 7.2 |
| CCOc1ccc(C=Nn2nnnc2N)cc1O | 0.68 | -10 |
| CC(C)(C)OC(=O)NN=Cc1cccn1-c1ccc([N+](=O)[O-])cc1 | 0.65 | 4.1 |
| O=C(NN=Cc1ccc(-c2ccccc2C(=O)O)o1)c1cccs1 | 0.74 | 2.0 |
| COc1cc(C(C)=NNC(=O)c2ccc(CSc3nncn3C)cc2)cc(OC)c1OC | 0.71 | -2.9 |
| Cn1c(=O)n(CCN2CCOCC2)c(=O)c2c1nc1n2CCN1c1ccc(Oc2ccccc2)cc1 | 0.72 | -2.1 |
| CCOC(=O)NN=C(C)c1ccc(C)c([N+](=O)[O-])c1 | 0.62 | 2.8 |
| Cc1cc(C(=O)NN=Cc2cn(C)nc2C)c2ccccc2n1 | 0.69 | -0.7 |
| NC(Cc1ccc([N+](=O)[O-])cc1)=NOC(=O)COc1ccc2ccccc2c1 | 0.66 | 0.8 |
| C=C(C)C1CC=C(C)C(=NNC(=O)COc2ccccc2Cl)C1 (centres undefined) | 0.71 | 2.1 |
